Source: PubChem (ICCB-Longwood Screening Facility, Harvard Medical School)
Sa helicase inh: blocks Staphylococcus aureus DNA helicase; 0.05% of 120,000 active; inhibition, %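 (tested at about 80 µM)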; purified S. aureus helicase, fluorescence unwinding assay; about half of the hits fall short of the stated cut;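 active = both duplicates at 50% or more, or one of them with a favoured structure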;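 also: 0% = mean of negative control wells and 100% = mean of positive control wells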
MgrA-DNA mod: alters Staphylococcus aureus MgrA binding to DNA. fluorescence polarization. inhibition, %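 (about 10 µg/mL by stock and volumes)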. 0.13% of 84,000 active. AID 602314;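 active = above 50% in either of two replicates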;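 also: 0% = protein plus DNA without compound and 100% = DNA alone without protein; higher means less MgrA bound to DNA so lower polarization; one replicate is shown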
* = called active by the depositor; · = not tested or not shown.

SMILES | MgrA-DNA mod | Sa helicase inh
O=C(NCCCN1CCN(Cc2ccccc2)CC1)c1cn2cc(C(F)(F)F)cc(Cl)c2n1 | 0.6 | ·
O=C(COc1ccc(/C=N/NS(=O)(=O)c2ccccc2)cc1)N1CCOCC1 | 1.1 | -14
CN1CCN(c2ccc(NC(=O)COc3ccc(Br)cc3)cc2)CC1 | -0.2 | 7
CC(C)n1c(O)c(N=NC(=O)c2cccc(S(=O)(=O)N3CCCC3)c2)c2ccccc21 | · | -9
O=C(NO)c1ccccc1 | 1.2 | 16
COc1cc(NC(=O)Cn2nc([N+](=O)[O-])c(Br)c2C)c(OC)cc1Cl | -3.2 | ·
CCOC(=O)c1c(-c2ccccc2)nc2ccccn12 | 0.6 | ·
O=C(COC(=O)Cn1cnc2ccccc21)Nc1ccccc1 | · | 2
CCC(C)NC(=O)c1ccc2ccccc2c1 (stereo not given) | 0.4 | 8
CC1(C)COC(N(C(=O)NC2CCCCC2)c2cccc(Cl)c2)=N1 | -1.4 | -6
COc1ccc(-c2nnc(SCC(=O)NCc3ccc(OC)c(OC)c3)n2N)cc1 | · | -26
O=C1OC(CC(=O)N2CCN(Cc3ccc4c(c3)OCO4)CC2)c2ccccc21 (stereo not given) | · | 13

(list continues)
SMILES | MgrA-DNA mod | Sa helicase inh
Nc1nc(Sc2cc(-n3cccc3)c(Cl)cc2[N+](=O)[O-])n[nH]1 | -2.1 | ·
CCOC(=O)c1c(NC(=O)CCCC(=O)O)sc(C)c1C | · | -11
CN(C)S(=O)(=O)c1ccc2nc(NC(=O)/C=C/c3ccccc3)sc2c1 | · | -25
COc1ccc(Cl)cc1-n1c(SCc2cccc(Cl)c2)nnc1-c1cc2occc2n1C | 4.2 | 7
CN(c1ccccc1)S(=O)(=O)c1ccc2c3c(cccc13)C(=O)N2 | · | 6
O=C(NCC1CCCO1)c1cc2sccc2n1Cc1ccc(F)cc1 (stereo not given) | 4.0 | 4
CC1CC(C)(C)OC(C2CC=CCC2)O1 (stereo not given) | · | 12
COc1cc2ncnc(N3CC(C)OC(C)C3)c2cc1OC (stereo not given) | -0.1 | ·
CCN(C(=O)Cn1cc(C(F)(F)F)ccc1=O)C1=CCCC1 | · | -3
Cc1ccc(S(=O)(=O)N(C(=O)Oc2ccccc2)c2ccc3oc(=O)sc3c2)c(C)c1 | -0.8 | 7
CCCn1c(N2CCN(CC(=O)Nc3ccc(Cl)cc3)CC2)nc2ccccc21 | -2.6 | -4
COC(=O)CCn1nnc(-c2cccc(C)c2)n1 | -4.4 | 2

Going on with the list:
SMILES | MgrA-DNA mod | Sa helicase inh
NC(=Nc1ccccc1Cl)SCc1c(Cl)cccc1Cl | -1.5 | ·
Cc1ccc(NC(=O)OCc2cccs2)cc1 | · | -7
O=C(CCNc1nc(-c2ccccc2)nc2ccccc12)N1CCCC1 | · | 10
CCOC(=O)Cc1nc2nc(C)c(Br)c(=O)n2[nH]1 | · | 6
CCc1cccc(C)c1-n1c(C)cc(/C=C2\C(=O)NC(=S)N(c3ccccc3F)C2=O)c1C | 2.5 | -4
CSc1cccc(NC(=O)CCS(=O)(=O)c2ccc3c(c2)CCN3C(=O)C2CC2)c1 | · | 6
CC(CCc1ccccc1)NC(=O)CN1CCN(Cc2ccccc2)C1=O (stereo not given) | · | 7
Cc1ccccc1CC(=O)Nc1ccc(S(N)(=O)=O)cc1 | -1.6 | 6
CSc1cccc(NC(=O)CCS(=O)(=O)c2cccc3nonc23)c1 | · | 11
O=C(CSC1=NCCS1)NC12CC3CC(CC(C3)C1)C2 | -1.0 | 9
CC(Oc1ccc(-c2nnco2)cc1)C(=O)Nc1cccc2ccccc12 (stereo not given) | · | 5
CC(=O)N(C)c1cccnc1 | 4.0 | ·

More structures follow.
SMILES | MgrA-DNA mod | Sa helicase inh
Cc1ccc(Nc2cc3oc4cc(C(C)(C)C)ccc4[nH]c3c3c(=O)c4ccccc4c(=O)c23)cc1 | -2.4 | ·
CCCC(=O)N1c2ccccc2C(Nc2ccccc2)CC1C (stereo not given) | · | -12
CCOc1ccc2c(c1)NC(c1ccc(C)o1)=NC(c1cccs1)=N2 | · | 23
O=C1CC(c2ccc(Cl)cc2)CC2=C1C(c1cc3c(cc1[N+](=O)[O-])OCO3)Nc1ccccc1N2 (stereo not given) | -2.5 | ·
N#Cc1ccsc1NC(=O)/C=C/C(=O)O | -2.5 | ·
CCC(C#N)(C(N)=O)c1ccccc1 (stereo not given) | · | 10
COc1ccc(C(=O)Nc2ccc(N3CCN(c4ccc(OC)cc4)CC3)c(C#N)c2)cc1 | -1.9 | 4
O=C(NCc1ccc2c(c1)OCO2)C1CCC(=O)N1CCc1ccccc1 (stereo not given) | · | -15
O=C(Nc1ccccc1-c1nc2ccccc2o1)C1CCCCC1 | · | -19
Cc1c(O)ccc2c(=O)c(Oc3ccccc3)c(C(F)(F)F)oc12 | · | 7
COC(=O)c1cc2sccc2n1CC(=O)Nc1ccc(C(C)C)cc1 | -0.8 | 4
O=C(CN1C(=O)CCc2ccccc21)NCCN1CCN(c2ccccc2F)CC1 | · | -6

Complete entries as entered above. Order of screens: MgrA-DNA mod | Sa helicase inh
COc1ccc(C(=O)Nc2ccc(N3CCN(c4ccc(OC)cc4)CC3)c(C#N)c2)cc1 is listed with -1.9 | 4
O=C(NCc1ccc2c(c1)OCO2)C1CCC(=O)N1CCc1ccccc1 (stereo not given) is listed with · | -15
O=C(CN1C(=O)CCc2ccccc21)NCCN1CCN(c2ccccc2F)CC1 is listed with · | -6
Cc1ccc(Nc2cc3oc4cc(C(C)(C)C)ccc4[nH]c3c3c(=O)c4ccccc4c(=O)c23)cc1 is listed with -2.4 | ·
CCC(C#N)(C(N)=O)c1ccccc1 (stereo not given) is listed with · | 10

Next part:
SMILES | MgrA-DNA mod | Sa helicase inh
O=C(NCc1nc2ccccc2s1)c1cc(F)cc2c1OCOC2 | -0.3 | ·
CC1=CCC(C2OCC3CC=C(C)C2C3)CC1 (stereo not given) | 0.6 | 10
CN1CCC(N(C)C(=O)c2ccc(S(=O)(=O)NCc3ccco3)cc2)CC1 | · | -15
COC(=O)c1c(C)noc1-c1cccs1 | -0.8 | ·
O=C1CC2CS(=O)(=O)CC2N1C1CCCCC1 (stereo not given) | · | -11
O=c1c(Oc2ccccc2F)coc2cc(O)ccc12 | 5.5 | -7
CCOC(=O)N1CCC(NC(=O)c2sc3nc4n(c(=O)c3c2C)CCCC4)CC1 | 1.4 | -9
CCCOC(=O)c1cc(-c2ccc(/C=C3\C(=O)N(CCO)C(=O)C(C#N)=C3C)o2)ccc1Cl | 18 | -10
Cc1nnc(-c2ccccn2)[nH]c1=O | · | 18
CC(C)(C)c1ccc(C(O)=C(C#N)C#N)cc1 | -2.4 | ·
Nc1ccc2c(c1)C(=O)N(CC1CCCO1)C2=O (stereo not given) | 1.4 | -1
CCCN(Cc1nnc(-c2ccco2)o1)C(=O)C1CCN(c2ncc(C(F)(F)F)cc2Cl)CC1 | · | 2

Following part.
SMILES | MgrA-DNA mod | Sa helicase inh
CC1CCCCN1C(=O)c1cc2ccccc2cc1O (stereo not given) | 7.5 | 7
COc1ccc(Nc2nnc(SCC#N)s2)cc1 | · | 11
CCN(CC)C(=S)SCc1nc(N)nc(Nc2ccccc2OC)n1 | · | 11
Cn1cccc1C(=O)N/N=C/c1c(Cl)cccc1Cl | -1.1 | ·
O=S(=O)(/C=C/c1ccccc1)N1CCN(C(=S)NCC2CCCO2)CC1 (stereo not given) | · | -3
O=C(c1cc2nc(-c3ccco3)cc(C(F)(F)F)n2n1)N(Cc1ccccc1)Cc1ccccc1 | -0.6 | 6
Cc1nn(-c2ccccc2)c2nc(N)c(C(N)=O)cc12 | -3.5 | ·
O=C(O)CSc1nnnn1C1CCCCC1 | -3.5 | 10
Cc1noc(C)c1CSc1nc2sc(C)c(C)c2c(=O)n1C1CCCC1 | · | -7
O=C(Nc1ccccc1)C1CCCCN1S(=O)(=O)c1ccccc1 (stereo not given) | · | 8
Clc1ccc(-c2nc(C=Nc3ccccc3)c3ccccn23)cc1 | 0.7 | 14
Brc1nc(Br)n(Cc2ccccc2)n1 | -1.2 | ·

Going on with the list.
SMILES | MgrA-DNA mod | Sa helicase inh
CC(C)c1ccc(OCC(O)CN2CCCCC2)cc1 (stereo not given) | · | -17
COC(=O)CSc1nc(C)c2c(n1)CCCC2 | · | 7
COC(=O)COc1ccccc1C(=O)OC | · | 13
C=C(C)Cc1c(C)nc(-c2ccc(Cl)cc2)nc1OC(=S)N(CC)CC | 0.4 | ·
OCc1cn(CC(O)Cn2cnc3ccccc32)c2ccccc12 (stereo not given) | -3.0 | -2
CCN1CCN(c2cc3c(cc2F)c(=O)c(S(=O)(=O)c2ccc(OC)cc2)cn3C)CC1 | · | -33
COc1ccccc1NS(=O)(=O)c1ccc2oc(SCC(=O)N3CC(C)OC(C)C3)nc2c1 (stereo not given) | · | 3
CCCCSC1=C(C#N)C(=O)NC(C(C)C)S1 (stereo not given) | · | -19
Cc1ccc(Nc2nc(O)c(C3=c4cc(Br)ccc4=NC3=O)s2)cc1C | -0.5 | ·
COc1cccc(-n2ccnc2SCC(=O)NCc2ccccc2)c1 | · | 17
Cc1nn(-c2ccccc2)c2sc(C(=O)NN=C3CCCC3)cc12 | 2.2 | -15
Cc1ccc(-c2nc(C#N)c(N(C)C)o2)cc1 | 0.5 | -9

Remaining list, next part.
SMILES | MgrA-DNA mod | Sa helicase inh
CCN1C(=O)CS/C1=N\S(=O)(=O)c1ccccc1 | · | -13
CCOC(=O)c1ccc(OCC2NCCc3cc(OC)c(OC)cc32)cc1 (stereo not given) | · | -18
CN(Cc1ccccc1)S(=O)(=O)c1ccc(NC(=O)c2ccco2)cc1 | 0.7 | -1
Cc1cc(N)n(C2CCCCC2)n1 | · | 5
O=C(C1COc2ccccc2O1)N(Cc1ccc2c(c1)OCO2)C1CCCC1 (stereo not given) | · | -6
CC(C)CC(=O)N1CCN(Cc2ccccc2)CC1 | -0.7 | -11
Cc1ccc2c(CNCc3ccccc3)c(C(=O)O)[nH]c2c1 | · | -9
COc1nc(Nc2ccc(C)cc2)nc(N2CCC(C)CC2)n1 | -0.7 | 10
Cc1ccccc1NC(=O)c1ccccc1NC(=O)c1ccccc1 | -0.3 | 3
CS/C(=N/S(=O)(=O)c1ccccc1)N1CCN(c2c(C#N)cccc2C#N)CC1 | · | 18
CCN(CC)c1ccc(C(=O)OCC(=O)NCc2ccccc2Cl)cc1 | -0.6 | -11
COC(=O)C(Sc1c[nH]c2ccccc12)(C(F)(F)F)C(F)(F)F | · | 42

The list goes on:
SMILES | MgrA-DNA mod | Sa helicase inh
O=C(CCC(=O)c1cccs1)Nc1nnc(C2CC2)s1 | · | -11
COc1cccc(-c2csc(/C(C#N)=C\Nc3ccc(NC(C)=O)cc3)n2)c1 | · | -17
CNC(=S)N/N=C/c1cccnc1 | · | -13
Cc1c2cnn(-c3ccccc3)c(=O)c2c(C)n1CCCC(=O)NC1CC1 | · | 1
O=S(=O)(NCc1csc(-c2cccs2)n1)c1cccs1 | · | 9
Cc1c2cc(-c3cccs3)sc2nc2c(O)cc(=O)[nH]c12 | 1.5 | 0
CC(C)CCn1c(=O)c2ccccc2n2c(COC(=O)c3ccc(S(=O)(=O)N(C)C)cc3)nnc12 | · | -8
O=C(Nc1ccccc1I)C1CC(=O)N(c2ccccc2)C1 (stereo not given) | -4.7 | 12
CC(=O)N1CCc2cc(S(=O)(=O)NC(CC(C)C)C(=O)NCc3ccc(Cl)cc3)ccc21 (stereo not given) | -0.2 | 15
N#Cc1ccc(-c2cccc(C(F)(F)F)c2)o1 | -0.9 | 5
CC(=O)Nc1sc(C)nc1-c1ccccc1 | · | 16
CC1=CC(=O)N(c2nc(-c3ccc(Cl)cc3)cs2)C1=O | -0.2 | ·

(further entries)
SMILES | MgrA-DNA mod | Sa helicase inh
CCC(=O)n1nc(-c2ccc(OC)cc2)nc1SC | -2.5 | 1
O=C(CSc1nc2ccccc2o1)OCc1cc(=O)oc2cc3c(cc12)CCC3 | · | 6
O=C(CC(Cc1ccccc1)C(=O)O)Nc1ccccc1 (stereo not given) | · | 14
Cc1ccc(CN(C)C(=O)c2ccc(C)c(NC(=O)c3ccco3)c2)o1 | · | -13
CCOc1ccccc1/C=N/NC(=S)NC | -1.0 | ·
Cc1cc(C)n(CC(O)COc2cccc3ccccc23)n1 (stereo not given) | -1.9 | -16
S=c1nc[nH]c2ccccc12 | · | -16
COc1ccc(C(=O)N2CCC(Cc3ccccc3)CC2)cc1OC | 1.9 | 20
CC1CCN(CN2CC(Cn3c4ccccc4c4ccccc43)OC2=O)CC1 (stereo not given) | 1.1 | -2
COc1ccc(C(=O)COc2nc(-c3ccccc3)cc(C(F)(F)F)c2C#N)cc1 | -0.2 | ·
CCOC(=O)c1ccc(CC(=O)c2cc(CC)c(O)cc2O)o1 | · | -23
Brc1ccc(-c2csc(=NC3CC3)n2N=C2CCCC2)s1 | · | 8

The list goes on:
SMILES | MgrA-DNA mod | Sa helicase inh
CCS(=O)(=O)N1CCN=C1SCc1cccc(C)c1 | · | 7
Cc1sc2nc(CN3CCCC3)nc(N3CCC(C(N)=O)CC3)c2c1C | · | 5
CC1CCCC(NC(=O)CSc2ncccc2C(=O)O)C1C (stereo not given) | · | 6
CCOC(=O)CCCn1c(=O)c2cccn2c2ccccc21 | -0.9 | 7
Cc1cc(C)cc(NS(=O)(=O)c2ccc3c(c2)OCCN3C(=O)c2ccco2)c1 | -1.3 | 7
Cc1cc(C)nc(NS(=O)(=O)c2ccc(NC(=O)c3ccc(N4C(=O)CCC4=O)cc3)cc2)n1 | · | -5
CCOC(=O)Cn1c2ccc(F)cc2c2nc3ccccc3nc21 | · | -8
CC1CCCC(C)N1CCNC(=O)Nc1ccc(Cl)cc1 (stereo not given) | 0.9 | -16
O=C(N1CCCCC1)C1(c2ccccc2)CCOCC1 | 3.4 | 3
COC(=O)CN(c1ccccc1)S(=O)(=O)c1ccc(OC)cc1 | 16 | 2
Cc1onc(-c2c(Cl)cccc2Cl)c1C1=NCCO1 | · | 12
O=C(Nc1ccccc1C(=O)NCc1ccccc1)c1ccco1 | -1.2 | 8
CC(C)(C)Cc1nc(-c2ccccn2)no1 | · | 5
CS(=O)(=O)NCCn1ccc2ccccc21 | · | 3

Only part of the results is shown. The share of hits here may be higher or lower than overall.
